MT1-MMP act inh = blockers of MT1-MMP proenzyme processing, primary screen, HT1080 RFP-PRO-GFP cells, GFP/RFP fluorescence | Matrix metalloproteinase-14 (Homo sapiens), P50281 | GFP/RFP ratio fluorescence, overnight; percent of plate control window, DMSO zero | actives 0.061% (n = 360,000) | AID 651647, 2012 | GFP/RFP ratio change, % at 20 µM;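 active means GFP/RFP ratio change of at least 30% with cell ATP level not reduced by more than half and red fluorescence within 50% of control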; further: strong numbers were not always called active
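Assay system – RFP-PRO-GFP reporter HT1080 cells · Compound dosing – single dose of 20 µM compound, 1% DMSO final · Incubation – overnight compound exposure at 37 °C · Measure – GFP/RFP fluorescence ratio · Benchmarks – DMSO wells and RFP-L50D-GFP cells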
PABP FP inh = PABP poly(A) RNA binding inhibitors, primary screen, biochemical, fluorescence polarization, uHTS; actives 1% (n = 290,000); Polyadenylate-binding protein 1 (Homo sapiens), P11940; inhibition, % at 35 µM;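 active means 50% or more with normal probe brightness, or confirmed in later tests; inconclusive means above 50% with abnormal brightness, or retests that disagree; inactive means below 50% or failed in later tests; about a fifth of its hits are not listed in these tables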;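 further: calls also rest on retests at 20 µM and on dose response follow-up; controls were probe without protein and protein plus probe with vehicle; some compounds called inactive have numbers as strong as hits; many hits fall short of the cut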
Target sequence (P11940 whole entry, looked up): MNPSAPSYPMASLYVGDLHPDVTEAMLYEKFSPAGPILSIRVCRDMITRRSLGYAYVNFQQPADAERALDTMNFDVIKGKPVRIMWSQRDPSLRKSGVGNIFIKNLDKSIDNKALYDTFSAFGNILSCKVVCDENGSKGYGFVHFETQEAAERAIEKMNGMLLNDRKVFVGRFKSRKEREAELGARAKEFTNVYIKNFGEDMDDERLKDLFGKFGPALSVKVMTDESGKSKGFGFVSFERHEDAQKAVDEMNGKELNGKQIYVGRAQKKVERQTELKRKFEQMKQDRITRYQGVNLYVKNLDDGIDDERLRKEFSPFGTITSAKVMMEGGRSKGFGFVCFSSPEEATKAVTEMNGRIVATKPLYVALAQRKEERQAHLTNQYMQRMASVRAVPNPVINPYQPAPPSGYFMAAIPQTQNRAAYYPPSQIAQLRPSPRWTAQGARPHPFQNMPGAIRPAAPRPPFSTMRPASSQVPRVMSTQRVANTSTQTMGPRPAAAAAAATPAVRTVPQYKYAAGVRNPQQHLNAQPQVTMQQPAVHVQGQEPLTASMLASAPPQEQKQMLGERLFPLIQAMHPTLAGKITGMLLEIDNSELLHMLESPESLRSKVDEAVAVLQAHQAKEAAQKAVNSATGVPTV
Env fusion inh = inhibitors of HIV-1 Env-driven cell-cell fusion, primary screen, HeLa-JRFL effector, CEM21 target cells, luciferase; inhibition, % at 12.3 µM; actives 1.1% (n = 360,000);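 active means mean replicate inhibition score of at least 50 and every replicate individually at or above 50; inconclusive means only one of the two criteria met; inactive means mean below 50 and not all replicates reaching 50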;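 further: 0% = plate neutral controls and 100% = maraviroc near 300 nM; one replicate is shown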
Rce1 inhib = yeast Rce1p protease inhibitors, primary screen, biochemical, fluorescence, cell-free homogeneous; CAAX prenyl protease 2 (Saccharomyces cerevisiae (strain ATCC 204508 / S288c)), Q03530; yeast membranes, quenched prenylated peptide cleavage fluorescence; calls only; AID 2563, 2010; actives 0.27% (n = 290,000);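 active means fall in fluorescence gain of 50% or more versus controls, with final raw signal at or below 3038400; inconclusive means same 50% fall but final raw signal above 3038400; inactive means fall in fluorescence gain under 50%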;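 further: plate controls were neutral control wells for no effect and wells lacking membranes for full effect; tested at 10 µM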
Target sequence (Q03530 whole entry, looked up): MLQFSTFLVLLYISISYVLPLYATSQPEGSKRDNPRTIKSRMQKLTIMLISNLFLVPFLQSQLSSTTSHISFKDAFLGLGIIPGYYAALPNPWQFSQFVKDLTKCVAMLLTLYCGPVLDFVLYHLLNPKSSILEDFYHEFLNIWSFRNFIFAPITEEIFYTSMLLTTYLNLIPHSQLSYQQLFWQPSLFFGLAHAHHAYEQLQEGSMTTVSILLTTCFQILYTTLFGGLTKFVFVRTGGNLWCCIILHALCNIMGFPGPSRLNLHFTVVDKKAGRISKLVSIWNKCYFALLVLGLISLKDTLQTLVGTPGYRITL
eIF4H FP inh = human eIF4H binding inhibitors, primary screen, translation initiation inhibitor project, biochemical, uHTS, fluorescence polarization; actives 0.94% (n = 290,000); Eukaryotic translation initiation factor 4H (Homo sapiens), Q15056; AID 2012, 2009; eIF4H fluorescence polarization binding assay; inhibition, % at 35 µM;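 active means 50% or more with normal probe brightness, or confirmed in later tests; inconclusive means above 50% with abnormal brightness, or retests that disagree; inactive means below 50% or failed in later tests; about a fifth of its hits are not listed in these tables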;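 further: calls also rest on retests at 20 µM and on dose response follow-up; 0% = protein and probe with vehicle and 100% = probe without protein; strong numbers were not always called active; many hits fall short of the cut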
UUG fidelity = modulators of yeast start codon fidelity, primary screen, whole organism, S. cerevisiae, single point, plate reader; S. cerevisiae UUG-firefly luciferase reporter, luminescence/redox ratio; actives 0.13% (n = 350,000); activity score, % at 18.7 µM;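 active means replicate mean at a twofold rise or more, about +100% in these data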;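 further: firefly luciferase made from a UUG start codon reports start codon fidelity; reporter light over untreated wells divided by growth signal over untreated wells; some hits fall short of that in this replicate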
CSC inhib = cancer stem cell viability inhibitors, primary screen, luminescence; cancer stem cell-like cells viability; inhibition, % at 7.5 µM; actives 1.1% (n = 300,000);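 active means mean at 75% or more and at least half the replicates too; inconclusive means mean and replicates disagree; tested in HMLE shEcad cells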;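 further: 0% = median of negative and 100% = median of positive control wells; the first replicate is given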
MT1-MMP act inh RFP = second read-out of MT1-MMP act inh, no call of its own (marks repeat the call); RFP signal change, %; measured here: RFP expression control read;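 0 = vehicle wells; hits needed this value within 50% of zero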
* hit, by the source's call; i = inactive; ? = inconclusive; . = no result given.

1. COC(=O)c1[nH]c2c(c1C)C(=O)CC(c1cccs1)C2 (stereo not given)
2. C/C(=N\NC(=O)CSCc1ccc(Cl)cc1)c1ccc(NC(=O)c2ccccc2)cc1
3. Cn1cccc1Cc1nnc(SCC(=O)NCC2CCCO2)n1-c1ccc(F)cc1 (stereo not given)
4. COc1cccc(C(=O)O)c1OS(=O)(=O)c1ccc(C)cc1
5. O=C(NCc1ccccn1)C1CCN(S(=O)(=O)N2CCC3(CC2)OCCO3)CC1
6. COc1ccc2sc(-c3ccccc3OC)c(-c3ccc(OCCN(C)C)cc3)c2c1
7. Cc1cccc(Nc2ncnc3onc(-c4cccc(Cl)c4)c23)c1C
8. CC1CCCN(C(=O)Cn2c3ccccc3c3nc4n(c(=O)c32)CCS4)C1 (stereo not given)

assay / compound | 1 | 2 | 3 | 4 | 5 | 6 | 7 | 8
MT1-MMP act inh | 21 | 4 | 3 | -1 | 5 | -1 | -9 | 1
MT1-MMP act inh RFP | -1 | 4 | 2 | -1 | 3 | -3 | -6 | -1
PABP FP inh | -8 | -68 | 14 | . | 11 | . | 4 | 11
Env fusion inh | . | . | -15 | -1 | -4 | 2 | -5 | 0
Rce1 inhib | i | i | i | . | i | . | i | .
eIF4H FP inh | -7 | -29 | -1 | . | 6 | . | 0 | 0
UUG fidelity | . | . | -10 | -8 | -18 | -7 | -5 | 5
CSC inhib | 2 | 9 | -9 | . | 1 | . | 0 | -19

9. O=C(Nc1ccccc1)c1cc([N+](=O)[O-])ccc1N1CCCCC1
10. O=C(c1cccc(Br)c1)N1CCN(C(=O)N2CCCCC2)CC1
11. CSc1ccc(CN2CCCC(N3CCN(c4ccccc4)CC3)C2)cc1 (stereo not given)
12. C=CCN1C(=O)S/C(=C/c2ccsc2)C1=O
13. Cc1ccc(C(=O)NNC(=O)c2ccc(Br)s2)cc1S(=O)(=O)N1CCOCC1
14. O=C(NCCS(=O)(=O)N1CCCCCC1)c1ccc(F)cc1
15. CCC1Sc2ccc(S(=O)(=O)CCC(=O)N3CCc4ccccc43)cc2NC1=O (stereo not given)
16. O=C1CCCCN1CCC(=O)N1CCCC(Nc2ccc(F)c(F)c2)C1 (stereo not given)

assay / compound | 9 | 10 | 11 | 12 | 13 | 14 | 15 | 16
MT1-MMP act inh | 1 | 0 | 6 | 7 | 0 | -3 | -3 | -1
MT1-MMP act inh RFP | -9 | 0 | -11 | 4 | 1 | 2 | 2 | 0
PABP FP inh | . | -14 | -2 | 0 | . | . | 10 | 14
Env fusion inh | -5 | . | 17 | i | . | -19 | 4 | -8
Rce1 inhib | . | i | i | i | . | i | i | i
eIF4H FP inh | . | -2 | -8 | -4 | . | . | 12 | 2
UUG fidelity | -10 | -3 | 17 | -15 | -5 | -3 | -13 | -14
CSC inhib | -7 | -15 | -1 | -8 | 13 | . | -1 | -8

17. O=C(NCC1CCCO1)C(=O)N/N=C/c1ccc(OCc2ccccc2Cl)cc1 (stereo not given)
18. CC(C)OC(=O)CC1C(=O)NCCN1C(=S)NC(=O)c1ccccc1 (stereo not given)
19. N#Cc1c(C(F)(F)F)cc(-c2ccccc2)nc1SCCN1CCOCC1
20. CSCCC(NC(=O)C12CC3CC(CC(C3)C1)C2)C(=O)OCC(=O)c1ccc(Cl)cc1 (stereo not given)
21. O=C(NCCCN1CCN(c2ccccc2F)CC1)C1CCN(S(=O)(=O)c2cccs2)CC1
22. O=C1CSC(c2ccc([N+](=O)[O-])cc2)N1c1ccccc1 (stereo not given)
23. CC(=O)Nc1ccc(S(=O)(=O)NNC(=S)NCC2CCCO2)cc1 (stereo not given)
24. CN(C)c1ccc(C2OC(=O)C(C)(C)C(=O)C2(C)C)cc1 (stereo not given)

assay / compound | 17 | 18 | 19 | 20 | 21 | 22 | 23 | 24
MT1-MMP act inh | -2 | 2 | -26 | -1 | 17 | -2 | 3 | 1
MT1-MMP act inh RFP | -6 | 6 | -18 | 5 | -8 | -3 | 5 | 4
PABP FP inh | . | -2 | 0 | 3 | -2 | 5 | 4 | -7
Env fusion inh | -31 | 2 | . | -8 | 27 | 4 | 4 | .
Rce1 inhib | i | i | i | i | i | i | i | i
eIF4H FP inh | . | -7 | -1 | -4 | -6 | -4 | -9 | -17
UUG fidelity | -17 | . | -7 | -10 | -4 | -14 | -17 | -12
CSC inhib | 9 | -1 | -3 | -10 | -12 | -15 | 12 | -13

25. CCCCN(C(=O)CSCC(=O)Nc1cccc(C)c1)c1c(N)n(CCCC)c(=O)[nH]c1=O
26. NC(=O)CSC1=Nc2ccccc2C2=NC(CCC(=O)NCc3ccc(F)cc3)C(=O)N12 (stereo not given)
27. CCC(C)(C)n1nnnc1C(c1cccc(C#N)c1)N1CCN(c2cc(C)ccc2C)CC1 (stereo not given)
28. COCCNC(=S)N/N=C(\C)c1ccc(OC)cc1
29. O=C(NCC1CCN(C(=O)c2ccc([N+](=O)[O-])cc2)CC1)C(=O)Nc1ccccc1
30. O=C(C1=COCCO1)N1CCN(S(=O)(=O)c2cccc(F)c2)CC1
31. C=CC[n+]1c(-c2ccc(C)cc2)csc1NNC(=O)Nc1ccccc1
32. CN1CCN(C(=O)c2cc3c(c(-c4cccc(C#CC(C)(C)O)c4)n2)[C@H](CCO)N(S(=O)C(C)(C)C)C3)CC1 (stereo not given in full)

assay / compound | 25 | 26 | 27 | 28 | 29 | 30 | 31 | 32
MT1-MMP act inh | -7 | -2 | -19 | 4 | -1 | 1 | -15 | 0
MT1-MMP act inh RFP | 0 | -5 | -11 | 2 | -9 | 2 | -11 | 4
PABP FP inh | . | -6 | -2 | 4 | ? | . | -13 | .
Env fusion inh | 2 | -50 | . | -37 | -17 | . | 78* | 35
Rce1 inhib | i | i | i | i | i | . | . | .
eIF4H FP inh | . | -5 | -3 | -2 | -4 | . | -5 | .
UUG fidelity | -12 | . | -13 | -39 | . | -28 | . | -6
CSC inhib | -6 | 5 | 15 | -1 | -16 | -11 | 19 | .

33. Cc1nc(NC(=O)C2CC2)sc1C(=O)Nc1ccc(Br)cc1
34. COc1ccc(C2C(C(=O)c3ccco3)=C(O)C(=O)N2c2nnc(C)s2)cc1 (stereo not given)
35. COc1ccc(/C=N/Nc2cc(=O)n(C)c(=O)n2C)cc1OC
36. COc1ccc(N(C(=O)CCl)C(C(=O)NCCc2ccccc2)c2cccs2)cc1 (stereo not given)
37. COc1ccc(N(C(=O)Cn2nnc3ccccc32)C(C(=O)NCc2ccco2)c2cccnc2)cc1 (stereo not given)
38. CCn1c2ccccc2c2nnc(SCC(=O)OCN3C(=O)c4ccccc4C3=O)nc21
39. CN(C)S(=O)(=O)Nc1ccccn1
40. COc1ccc(C(=O)Nn2cnc3ccccc3c2=O)c(OC)c1

assay / compound | 33 | 34 | 35 | 36 | 37 | 38 | 39 | 40
MT1-MMP act inh | 6 | -13 | 3 | -26 | 1 | 3 | 3 | -3
MT1-MMP act inh RFP | -1 | 1 | 5 | -24 | 6 | 7 | 3 | 2
PABP FP inh | 1 | ? | -4 | 18 | 1 | 2 | 13 | -1
Env fusion inh | 8 | -8 | . | . | . | . | 6 | .
Rce1 inhib | i | i | i | i | i | i | i | i
eIF4H FP inh | 2 | ? | -5 | 6 | 1 | 7 | 2 | -2
UUG fidelity | -13 | . | . | 5 | -17 | 1 | . | -15
CSC inhib | 43 | -16 | 11 | 111* | -3 | 7 | -8 | 2

41. CCOc1cnn(Cc2ccccc2)c(=O)c1SCc1ccccc1
42. C=C(C)CSc1nnc(-c2cccc(Cl)c2)n1N
43. CC(=O)c1cccc(NC(=O)Nc2ccc3c(c2)CCC3)c1
44. Cc1ccc(C2C(C#N)=C3N=C(N)c4ccccc4N3C3=C2C(=O)CCC3)cc1 (stereo not given)
45. O=C(CN1CCC(NC(=O)c2ccccc2F)CC1)Nc1ccc2c(c1)OCCO2
46. CCCC(=O)Nc1nc2c(s1)COc1ccccc1-2
47. O=C(Nc1ccc(N2CCCC2)c(Cl)c1)c1ccco1
48. CCCS(=O)(=O)N1CCN(CC2CC3C=CC2C3)CC1 (stereo not given)

assay / compound | 41 | 42 | 43 | 44 | 45 | 46 | 47 | 48
MT1-MMP act inh | -1 | 6 | 0 | 4 | 3 | 0 | 1 | 1
MT1-MMP act inh RFP | -2 | 2 | -4 | 0 | 0 | -2 | -8 | 0
PABP FP inh | -3 | 6 | -7 | 45 | 9 | 10 | 2 | 0
Env fusion inh | . | -90 | -31 | 6 | -132 | 13 | -180 | .
Rce1 inhib | i | i | i | i | i | i | i | i
eIF4H FP inh | -4 | -5 | -8 | ? | -9 | -4 | -9 | -2
UUG fidelity | . | -11 | 6 | -11 | -11 | -3 | -17 | -8
CSC inhib | -4 | -6 | 8 | -18 | 5 | . | . | 14

49. O=C(CCCn1cnc([N+](=O)[O-])n1)Nc1cccc(O)c1
50. CSc1ncccc1C(=O)OCC(=O)c1cc2ccccc2o1
51. O=C(N/N=C/c1c[nH]c2ccccc12)c1ccc(Br)cc1
52. Cc1cc(NC(=O)COC(=O)c2c(C)noc2C)ccc1Br
53. C=CCN1C(=Nc2cccnc2)SCC1(O)c1ccc(C)cc1 (stereo not given)
54. COc1ccc2nc(SCC(=O)NC(C)(C)C)[nH]c2c1
55. CCC(=O)NC(C)c1cc(Cl)c2ccccc2c1O (stereo not given)
56. Cc1ccc2nc(-c3ccccc3N)[nH]c2c1
57. CCCNC(=O)C1(C)CCCN(Cc2c(F)cccc2F)C1 (stereo not given)
58. CCn1c(=O)c(C)nn2c3ccccc3nc12

assay / compound | 49 | 50 | 51 | 52 | 53 | 54 | 55 | 56 | 57 | 58
MT1-MMP act inh | -6 | -6 | 3 | 3 | . | 6 | -6 | 4 | 2 | -3
MT1-MMP act inh RFP | -4 | -1 | 7 | 2 | . | 1 | 8 | -3 | 1 | 5
PABP FP inh | -9 | 20 | 9 | ? | -4 | 6 | . | 0 | . | -9
Env fusion inh | -1 | 7 | -6 | 6 | . | . | -19 | -158 | 31 | .
Rce1 inhib | i | i | i | i | i | i | . | i | . | i
eIF4H FP inh | 12 | 6 | -3 | -3 | -10 | -4 | . | 5 | . | -7
UUG fidelity | -5 | -13 | -10 | -9 | . | . | -21 | -37 | 5 | -10
CSC inhib | -4 | . | 7 | -2 | 8 | . | -8 | 4 | . | 4
